High-throughput results (PubChem)
EPAC1 ag val: human EPAC1 agonism, validation | O95398 | EPAC1 Rap1b BODIPY-GDP exchange, fluorescence | Potency, µM, without a hit: max response, positive = active, hits mostly activators | actives 1% (n = 16,000) | AID 1645883; active = well fitted activation curve with a large enough effect; inconclusive = small, poorly fitted or top-dose-only effect; inactive = no such curve, though single readings can be large or run the other way;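 note: nearly all actives have a fitted effect of over 70% in size; series mostly up to about 76 or 150 µM; scaled to a cAMP control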
Target sequence (O95398 whole entry, looked up): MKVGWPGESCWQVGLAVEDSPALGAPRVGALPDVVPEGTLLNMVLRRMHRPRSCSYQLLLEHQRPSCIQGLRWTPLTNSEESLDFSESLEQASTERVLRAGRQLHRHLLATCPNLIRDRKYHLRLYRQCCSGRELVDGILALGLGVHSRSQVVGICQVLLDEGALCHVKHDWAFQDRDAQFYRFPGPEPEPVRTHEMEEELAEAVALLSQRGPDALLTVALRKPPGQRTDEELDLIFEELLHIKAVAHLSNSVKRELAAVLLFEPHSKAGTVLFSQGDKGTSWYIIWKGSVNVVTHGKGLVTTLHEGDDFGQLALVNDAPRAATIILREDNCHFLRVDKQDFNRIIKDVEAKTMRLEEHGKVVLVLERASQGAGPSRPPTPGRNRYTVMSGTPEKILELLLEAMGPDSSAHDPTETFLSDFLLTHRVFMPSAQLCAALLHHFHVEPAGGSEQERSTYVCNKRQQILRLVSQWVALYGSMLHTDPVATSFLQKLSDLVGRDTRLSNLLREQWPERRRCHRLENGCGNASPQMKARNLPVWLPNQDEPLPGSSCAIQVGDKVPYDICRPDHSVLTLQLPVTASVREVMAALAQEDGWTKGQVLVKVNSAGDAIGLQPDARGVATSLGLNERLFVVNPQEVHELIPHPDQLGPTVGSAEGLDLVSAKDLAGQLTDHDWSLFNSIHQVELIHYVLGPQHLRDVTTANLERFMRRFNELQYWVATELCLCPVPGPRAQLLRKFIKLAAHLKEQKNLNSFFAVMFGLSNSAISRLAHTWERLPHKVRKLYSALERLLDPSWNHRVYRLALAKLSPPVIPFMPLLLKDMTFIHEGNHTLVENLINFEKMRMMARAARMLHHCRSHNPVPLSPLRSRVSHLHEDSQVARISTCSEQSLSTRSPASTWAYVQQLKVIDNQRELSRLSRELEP
An asterisk follows results filed as active; u = inconclusive; & = joins results of further samples; [ ] = another dose, or the depositor's remark. % is set by controls: 0 for no effect and ±100 for the full control effect; potency is the fitted concentration of half-maximal effect. A portion of the library; count on the stated rates, not on these rows.

canonical_smiles: C=C(C)C1Cc2c(ccc3c2OC2COc4cc(OC)c(OC)cc4C2C3=O)O1 (stereo unspecified)
  EPAC1 ag val: -29%

canonical_smiles: C[C@@H](CO)NC(=O)[C@@H]1C=C2c3cccc4[nH]cc(c34)C[C@H]2N(C)C1
  EPAC1 ag val: u

canonical_smiles: CC[C@]12CCCN3CCC4(c5ccccc5NC4C(C(=O)O)C1)C32 (stereo partly specified)
  EPAC1 ag val: u

canonical_smiles: O=C(Nc1ccc(Br)cc1)c1cc(Br)cc(Br)c1O
  EPAC1 ag val: -4%

canonical_smiles: CCC1(CC)C(=O)NC(=O)N(C)C1=O
  EPAC1 ag val: -38%[inhibitor]

canonical_smiles: O[C@@H](Cc1ccncc1)C(Cl)(Cl)Cl
  EPAC1 ag val: -1%

canonical_smiles: CCOC(OCC)P(=O)(O)CCCN
  EPAC1 ag val: -17%&-4%

canonical_smiles: C[C@H](NC(=O)[C@@H](N)Cc1ccc(O)cc1)C(=O)N[C@@H](Cc1ccccc1)C(=O)N[C@@H](Cc1ccccc1)C(N)=O
  EPAC1 ag val: -13%

canonical_smiles: CC1(C)C(=O)C=C[C@@]2(C)C1=C(O)C(=O)[C@@]1(C)C2CC[C@@]2(C)C(c3ccoc3)C[C@H]3O[C@@]321 (stereo partly specified)
  EPAC1 ag val: u

canonical_smiles: CN1CCC(=O)N(CCN=[N+]=[N-])CC1
  EPAC1 ag val: 27%

canonical_smiles: CCCCC/C=C\C/C=C\C/C=C\C=C\[C@H](CCCC(=O)O)OO
  EPAC1 ag val: -12%

canonical_smiles: COc1ccc(C2Oc3c(I)c(OC)cc(OC)c3CC2O)cc1OC (stereo unspecified)
  EPAC1 ag val: 3%

canonical_smiles: COc1ccc(C(=O)N2CCCC2=O)cc1
  EPAC1 ag val: u

canonical_smiles: NC(N)=NOCC[C@H](N)C(=O)O
  EPAC1 ag val: 2%&-10%

canonical_smiles: COC1=C[C@H]2[C@H]3Cc4ccc(OC)c(O)c4[C@@]2(CCN3C)CC1=O
  EPAC1 ag val: 0%

canonical_smiles: OC(O)C(Cl)(Cl)Cl
  EPAC1 ag val: -38%[inhibitor]

canonical_smiles: O=C(Nc1cccc(F)c1)N1CCC2(CC1)CCN(C(=O)Oc1ccccc1)CC2
  EPAC1 ag val: -62%[inhibitor]

canonical_smiles: C[C@@H]1C[C@@H]([C@H](O)CC2CC(=O)NC(=O)C2)C(=O)[C@@H](C)C1
  EPAC1 ag val: 3%&-13%

canonical_smiles: C[C@]12CCC(=O)C(O)=C1CC[C@@H]1[C@@H]2CC[C@]2(C)C(=O)CC[C@@H]12
  EPAC1 ag val: 1%

canonical_smiles: CCNC(=O)[C@@H]1O[C@@H](n2cnc3c(N)ncnc32)[C@H](O)[C@H]1O
  EPAC1 ag val: -8%

Continued; the last seven above are carried over.
canonical_smiles: NC(N)=NOCC[C@H](N)C(=O)O
  EPAC1 ag val: 2%&-10%

canonical_smiles: COC1=C[C@H]2[C@H]3Cc4ccc(OC)c(O)c4[C@@]2(CCN3C)CC1=O
  EPAC1 ag val: 0%

canonical_smiles: OC(O)C(Cl)(Cl)Cl
  EPAC1 ag val: -38%[inhibitor]

canonical_smiles: O=C(Nc1cccc(F)c1)N1CCC2(CC1)CCN(C(=O)Oc1ccccc1)CC2
  EPAC1 ag val: -62%[inhibitor]

canonical_smiles: C[C@@H]1C[C@@H]([C@H](O)CC2CC(=O)NC(=O)C2)C(=O)[C@@H](C)C1
  EPAC1 ag val: 3%&-13%

canonical_smiles: C[C@]12CCC(=O)C(O)=C1CC[C@@H]1[C@@H]2CC[C@]2(C)C(=O)CC[C@@H]12
  EPAC1 ag val: 1%

canonical_smiles: CCNC(=O)[C@@H]1O[C@@H](n2cnc3c(N)ncnc32)[C@H](O)[C@H]1O
  EPAC1 ag val: -8%

canonical_smiles: OCC1CCCN2CCCCC12 (stereo unspecified)
  EPAC1 ag val: -5%

canonical_smiles: C[C@H]1[C@H]2Cc3ccc(O)cc3[C@]1(C)CCN2CCc1ccccc1
  EPAC1 ag val: -9%

canonical_smiles: CCOC(=O)C1(c2ccccc2)CCCN(C)CC1 (stereo unspecified)
  EPAC1 ag val: -3%

canonical_smiles: CN(C)CCc1c[nH]c2ccccc12
  EPAC1 ag val: -1%

canonical_smiles: O=S(=O)(O)C(F)(F)C(F)(F)C(F)(F)C(F)(F)C(F)(F)C(F)(F)C(F)(F)C(F)(F)F
  EPAC1 ag val: -229%[inhibitor]

canonical_smiles: CCOC(=O)C1(c2ccccc2)CCN(CCC(C#N)(c2ccccc2)c2ccccc2)CC1
  EPAC1 ag val: u

canonical_smiles: O=C(CCl)c1ccc(Cl)cc1Cl
  EPAC1 ag val: u

canonical_smiles: CN1C(=O)CCS(=O)(=O)C1c1ccc(Cl)cc1 (stereo unspecified)
  EPAC1 ag val: -1%&-1%&17%&-25%

canonical_smiles: CCCCCCCCCC(=O)O[C@H]1CC[C@H]2[C@@H]3CCC4=CC(=O)CC[C@]4(C)[C@H]3CC[C@]12C
  EPAC1 ag val: -39%[inhibitor]

canonical_smiles: ClCC1CO1 (stereo unspecified)
  EPAC1 ag val: -7%

Molecules shown so far that contain an NH in an aromatic ring, in the order listed:
canonical_smiles: C[C@@H](CO)NC(=O)[C@@H]1C=C2c3cccc4[nH]cc(c34)C[C@H]2N(C)C1
  EPAC1 ag val: u

canonical_smiles: CN(C)CCc1c[nH]c2ccccc12
  EPAC1 ag val: -1%

Additional records.
canonical_smiles: C=CCN1CCc2cccc3c2[C@H]1Cc1ccc(O)c(O)c1-3
  EPAC1 ag val: 13%

canonical_smiles: CCCCCCCCCCCCCCCCOC[C@@H](O)COP(=O)([O-])OCC[N+](C)(C)C
  EPAC1 ag val: -6%

canonical_smiles: O=c1n(Cl)c(=O)n(Cl)c(=O)n1Cl
  EPAC1 ag val: -21%

canonical_smiles: CCCN(CCC)[C@@H]1CCc2cccc(O)c2C1
  EPAC1 ag val: 8%&11%&-6%

canonical_smiles: C=C[C@H]1CN2CC[C@H]1C[C@H]2c1[nH]c2ccccc2c1CCO
  EPAC1 ag val: 6%

canonical_smiles: C=CCN(C1=NCCN1)c1c(Cl)cccc1Cl
  EPAC1 ag val: 0%&-3%

canonical_smiles: c1cc(CN2CC3(CCNCC3)C2)ccn1
  EPAC1 ag val: -42%[inhibitor]

canonical_smiles: Oc1ccc2c3c1O[C@H]1c4[nH]c5c(c4C[C@@]4(O)[C@@H](C2)N(CC2CC2)CC[C@]314)C[C@@]1(O)[C@H]2Cc3ccc(O)c4c3[C@@]1(CCN2CC1CC1)[C@H]5O4
  EPAC1 ag val: 1%&-6%

canonical_smiles: CC1=C(O)C(=O)[C@@H]2O[C@@H]2C1=O
  EPAC1 ag val: -13%

canonical_smiles: CC(C)CN1CCC2(CC1)CCN(S(C)(=O)=O)CC2
  EPAC1 ag val: -15%

A few values from the entries so far.
For EPAC1 ag val, Oc1ccc2c3c1O[C@H]1c4[nH]c5c(c4C[C@@]4(O)[C@@H](C2)N(CC2CC2)CC[C@]314)C[C@@]1(O)[C@H]2Cc3ccc(O)c4c3[C@@]1(CCN2CC1CC1)[C@H]5O4 is entered as 1%&-6%
For EPAC1 ag val, CC1=C(O)C(=O)[C@@H]2O[C@@H]2C1=O is entered as -13%
For EPAC1 ag val, C=CCN(C1=NCCN1)c1c(Cl)cccc1Cl is entered as 0%&-3%
For EPAC1 ag val, CCCN(CCC)[C@@H]1CCc2cccc(O)c2C1 is entered as 8%&11%&-6%
For EPAC1 ag val, C=CCN1CCc2cccc3c2[C@H]1Cc1ccc(O)c(O)c1-3 is entered as 13%
For EPAC1 ag val, C=C[C@H]1CN2CC[C@H]1C[C@H]2c1[nH]c2ccccc2c1CCO is entered as 6%
For EPAC1 ag val, CC(C)CN1CCC2(CC1)CCN(S(C)(=O)=O)CC2 is entered as -15%

The list continues.
canonical_smiles: C[C@H](N)Cc1c[nH]c2ccc(O)cc12
  EPAC1 ag val: 7%

canonical_smiles: CN(C(=O)Cc1ccc(Cl)c(Cl)c1)C(CN1CCCC1)c1cccc(N=C=S)c1 (stereo unspecified)
  EPAC1 ag val: 11%

canonical_smiles: CCC(C)C(=O)c1c(O)c(C)c2oc3c(C)c(O)c(C(=O)C(C)CC)c(O)c3c2c1O (stereo unspecified)
  EPAC1 ag val: -71%[inhibitor]

canonical_smiles: C[C@@]12CCC(=O)C[C@@H]1CC[C@@H]1[C@@H]2CC[C@]2(C)C(=O)CC[C@@H]12
  EPAC1 ag val: u

canonical_smiles: C[C@]12N[C@@H](Cc3ccccc31)c1ccccc12
  EPAC1 ag val: 1%&-1%

canonical_smiles: CN1C(=O)CN=C(c2ccccc2)c2cc([N+](=O)[O-])ccc21
  EPAC1 ag val: 10%

canonical_smiles: NC[C@H](CS(=O)(=O)O)c1ccc(Cl)cc1
  EPAC1 ag val: 2%

canonical_smiles: C[C@]12CCC(=O)C=C1CC[C@@H]1[C@@H]2CC[C@]2(C)C(=O)CC[C@@H]12
  EPAC1 ag val: -9%&-13%

canonical_smiles: COc1cc2c(cc1OC)[C@@H]1C(=O)c3ccc4oc(C(C)C)cc4c3OC1CO2 (stereo partly specified)
  EPAC1 ag val: -35%[inhibitor]

canonical_smiles: CNCCc1ccc(O)c(O)c1
  EPAC1 ag val: -14%&-11%

canonical_smiles: COc1cccc(C(=O)CCN[C@@H](C)[C@H](O)c2ccccc2)c1
  EPAC1 ag val: -4%

canonical_smiles: COc1cc2c(cc1OC)[C@@H]1C(=O)c3ccc(OC)c(CC=C(C)C)c3OC1CO2 (stereo partly specified)
  EPAC1 ag val: -72%[inhibitor]

canonical_smiles: COP(=S)(OC)SCN1C(=O)c2ccccc2C1=O
  EPAC1 ag val: -24%

canonical_smiles: C[C@H](N)Cc1c[nH]c2ccc(OCc3cccs3)cc12
  EPAC1 ag val: -1%

canonical_smiles: CC(N)Cc1c[nH]c2ccc(OCc3cccs3)cc12 (stereo unspecified)
  EPAC1 ag val: -8%&-9%

canonical_smiles: C=CCN1CC[C@@]23c4c5ccc(O)c4O[C@H]2/C(=N\N=C2/CC[C@@]4(O)[C@H]6Cc7ccc(O)c8c7[C@@]4(CCN6CC=C)[C@@H]2O8)CC[C@]3(O)[C@@H]1C5
  EPAC1 ag val: -13%

Two compounds drawn at random from those above, as already listed:
canonical_smiles: CC(N)Cc1c[nH]c2ccc(OCc3cccs3)cc12 (stereo unspecified)
  EPAC1 ag val: -8%&-9%

canonical_smiles: COP(=S)(OC)SCN1C(=O)c2ccccc2C1=O
  EPAC1 ag val: -24%
